Beta2AR agonist: agonists of human beta-2 adrenergic receptor inducing internalization; Am2.2-beta2AR cells, FAP receptor internalization, flow cytometry; reference of the scale not given here; response, % (concentration not given with the values); 340,000 compounds, 0.43% hits; AID 504454;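 active means response above a set limit, near 3 SD of response in nonfluorescent compounds, cut at about 42% in these data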;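 further: stock transfer was 100 nL into about 11 µL; a reference agonist was the positive control; negative values mostly stem from fluorescent compounds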
Target sequence (P07550 whole entry, looked up): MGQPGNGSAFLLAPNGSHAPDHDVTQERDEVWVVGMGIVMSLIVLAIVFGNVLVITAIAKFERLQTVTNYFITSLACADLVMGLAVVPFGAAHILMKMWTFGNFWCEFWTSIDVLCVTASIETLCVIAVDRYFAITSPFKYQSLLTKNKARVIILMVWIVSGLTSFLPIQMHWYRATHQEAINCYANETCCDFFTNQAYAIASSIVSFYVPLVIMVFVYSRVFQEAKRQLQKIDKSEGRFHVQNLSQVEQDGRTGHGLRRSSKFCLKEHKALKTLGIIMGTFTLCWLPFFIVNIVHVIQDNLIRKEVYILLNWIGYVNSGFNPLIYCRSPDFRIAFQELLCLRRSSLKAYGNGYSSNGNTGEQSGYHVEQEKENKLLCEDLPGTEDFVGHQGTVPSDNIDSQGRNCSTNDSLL
Bfl-1 A1 inh: inhibitors of the anti-apoptotic protein A1, read as caspase activation; AID 2462; caspase activation, % (test concentration not listed); MEF A1-2A-BIM cells, Caspase-Glo 3/7 luminescence, 3 h; percent of clofoctol response, vehicle zero; 330,000 compounds, 0.066% hits;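 active means over half of replicate activation scores above 10%, or exactly half above 10 with the replicate mean above 10; inconclusive means replicate mean below 10 yet half the replicates above 10; inactive means over half of replicates below 10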;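 further: wells of about 30 µL received 50 nL stock; many hits fall short of the cut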
ALR H2O2 inh: blocks human ALR sulfhydryl oxidase activity. P55789. purified ALR, DTT oxidation, H2O2 HRP-luminol luminescence. inhibition, % (test concentration not listed). 290,000 compounds, 3.8% hits. AID 485317;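 active means mean and each replicate at 75% or more; inconclusive means only one of the two met; inactive means neither met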;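 further: stock transfer was 7.5 nL into about 7.5 µL; 0% = neutral wells and 100% = wells with inactivated enzyme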
Target sequence (P55789 whole entry, looked up): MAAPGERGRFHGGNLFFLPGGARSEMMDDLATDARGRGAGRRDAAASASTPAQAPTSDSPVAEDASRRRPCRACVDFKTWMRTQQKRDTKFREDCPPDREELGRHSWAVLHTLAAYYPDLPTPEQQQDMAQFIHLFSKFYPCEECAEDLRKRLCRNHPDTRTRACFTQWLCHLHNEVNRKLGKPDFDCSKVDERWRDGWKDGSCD
rRNA inh HTS: inhibitors of bacterial rRNA selective over humanized ribosomes; E. coli WT GFP vs humanized-ribosome RFP mutants, fluorescence, 24 h; active compounds read low; DMSO median 0, no signal -100; GFP signal change (wild-type ribosome), % (test concentration not listed); 350,000 compounds, 1.6% hits;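 active means significant combined selectivity score with lowered wild-type GFP, culture density cut under 30%, mutant RFP and density less affected; inactive means any of these conditions unmet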; further: one replicate is shown; some compounds called inactive have numbers as strong as hits
Beta cell apopt: beta cell apoptosis inhibition | INS-1E cytokine-induced death, ATP luminescence, 48 h; percent of positive-control rescue, neutral wells zero | protection from apoptosis, % (test concentration not listed) | 300,000 compounds, 0.8% hits;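 active means all replicates at 75% or more, or half of them and the mean; inconclusive means half reach 75% but not the mean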;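 further: 0% = cytokine-treated negative control wells and 100% = positive control rescue; higher means more ATP so stronger rescue from cytokine killing; wells of about 40 µL received 100 nL stock; the first replicate is given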
LANA-H2B inh: blocks KSHV LANA binding to histone H2A/H2B. inhibition, % (no concentration beside the values). AID 2629. cell-free LANA-H2A/H2B peptide, fluorescence polarization. 320,000 compounds, 0.6% hits; in the data active means inhibition mostly above about 10%, no sharp cut-off; inactive means mostly below about 6.7%;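 further: stock transfer was 7.5 nL into about 10 µL; 0% = median of vehicle wells and 100% = median of positive control wells; one replicate is shown; the record names a cut of 25% in any replicate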
T cruzi repl: blocks replication of Trypanosoma cruzi | T. cruzi beta-gal in NIH3T3, luminescence, 90 h | inhibition, % (test concentration not listed) | 300,000 compounds, 1.4% hits;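 active means mean inhibition across valid replicates above about 55%, limit read from the data; inconclusive means mean below that limit but half or more replicates reach it; inactive means mean below it, under half of replicates reach it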;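 further: signal also drops with host cell toxicity which is not excluded here; 0% = plate median of DMSO wells and 100% = zero luminescence signal; higher percent means less beta-gal luminescence so fewer parasites; stock transfer was 50 nL into about 50 µL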
Calb FLC: C. albicans growth modulation with fluconazole. growth inhibition, % (concentration not given with the values). 300,000 compounds, 0.57% hits. C. albicans CaCi-2 (fluconazole-resistant clinical isolate) + fluconazole, Alamar Blue growth, 48 h;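 active means most replicates above 75%; inconclusive means exactly half above 75%; inactive means most below 75%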;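 further: all wells also contain fluconazole at 8 µg/ml as a sub-toxic cotreatment; 0% = median of DMSO wells and 100% = median of geldanamycin control wells; wells of about 8 µL received 7.5 nL stock; the first replicate is given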
rRNA inh HTS OD600: further read-out of rRNA inh HTS, marked with its call; OD600 change, %; measured here: OD600 growth;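 optical density of the mix in the first replicate; 0 = DMSO median and -100 = no signal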
rRNA inh HTS RFP: further read-out of rRNA inh HTS, marked with its call; RFP signal change, %; measured here: RFP humanized mutant strains;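 first replicate; 0 = DMSO median and -100 = no signal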
Numbers without * were called inactive; ? = inconclusive; . = not tested or not shown. A portion of the library; rates above refer to the full screens.

Results follow in this order: Beta2AR agonist, Bfl-1 A1 inh, ALR H2O2 inh, rRNA inh HTS, rRNA inh HTS OD600, rRNA inh HTS RFP, Beta cell apopt, LANA-H2B inh, T cruzi repl, Calb FLC
- CC1CCCN(C(=O)CCCNC(=O)c2ccc(Cl)cc2)C1 (stereo not drawn)
    -6, 1.3, -9, 0, 7, -0.2, 0, 3.1, 3, -9
- CCCOc1ccc(C(=O)NNC(=O)CCNC(=O)c2ccco2)cc1OC
    16, 0.1, ., 1, 3, -0.3, -5, -0.7, -14, 5
- COCCn1c(SCC(=O)Nc2ccc3[nH]c(=O)[nH]c3c2)nc2ccccc21
    -5, 0.6, 91*, 1, 0, 2.4, -6, -0.2, ., .
- COc1cccc(/C=C(\C#N)C(=O)NC2CCS(=O)(=O)C2)c1 (stereo not drawn)
    0, -1.1, 3, 7, 7, 7.5, -4, -5.2, -10, 1
- CCN(CC(=O)NCc1ccc(Cl)cc1)C(=O)CSCC(=O)Nc1cccc(C)c1
    1, 0.5, -5, -19, -19, -3.1, -5, 2.3, -9, 3
- C(=C\c1ccccn1)/c1cccnc1
    -5, ., ., 6, 9, -0.4, ., ., -9, 3
- O=C(Nc1cccc(-c2cnc3ccccc3n2)c1)c1ccc(Cl)cc1
    -6, 0.1, -2, 1, -1, -6.7, 3, 8.0, 0, 5
- COc1ccc(CN2C(=O)[C@@H]3C(c4ccccc4Cl)=NO[C@@H]3C2=O)cc1
    2, 0.9, ., ., ., ., 0, 0.5, 0, -13
- COc1cc2c(C(=O)N3CCN(c4ccccc4)CC3)c(C)oc2cc1Br
    4, -0.2, -16, ., ., ., 5, -0.3, 18, 6
- CCCOC(=O)CCCC[C@H]1SC[C@@H](NC(=O)OC)[C@H]1NC(=O)OC
    27, -0.8, ., ., ., ., ., -1.6, -6, -13
- Oc1ccccc1N1CCN(c2ncccn2)CC1
    -6, 0.1, 99*, 9, 12, 3.9, 7, -3.1, 9, 2
- CCOC(=O)c1cn(CC(=O)Nc2ccc(OC)cc2OC)nn1
    1, -0.3, -1, 13, 13, 1.4, 2, -3.5, -13, -9
- COc1ccc(CSCC(=O)N/N=C/c2ccccc2OCc2ccccc2)cc1
    0, -0.6, -4, ., ., ., ., -1.8, -10, -8
- CCc1ccc(CN(C)C(=O)c2ccc3c(c2)OCCO3)cc1
    1, -0.9, 1, -1, -19, -0.3, -3, 0.6, -7, 5
- COc1ccc(Cl)cc1NC(=O)NC(C)c1ccncc1 (stereo not drawn)
    12, -0.1, -7, ., ., ., 2, -6.3, -8, -8
- NC(=O)CC(NC(=S)NCc1ccccc1)C(=O)O (stereo not drawn)
    0, 0.6, 0, ., ., ., -12, 4.3, -2, -2
- O=C(c1cc(-c2ccccc2)on1)N1CCCc2ccccc21
    -20, -0.7, 1, -8, -3, 0.3, 2, 0.2, 0, -42
- c1ccc2c(c1)CC/C2=N/Nc1nc2ccccc2[nH]1
    -1, -4.4, 99*, ., ., ., ., -0.3, 67*, 1
- CCCc1nc(SCc2ccccn2)c2c(=O)n(C)c(=O)n(C)c2n1
    5, -2.6, 0, 3, -7, -0.5, 11, -5.3, 13, -1
- CCS(=O)(=O)N1CCN(C(C)CCc2ccccc2)CC1 (stereo not drawn)
    3, 0.1, -15, ., ., ., 0, -2.1, 17, 0
- COCc1nc2oc3ccccc3c(=O)c2cc1C(=O)OC
    -5, -5.4, -5, 10, 8, 0.4, 0, 0.1, -4, 1
- Cc1nnc(NC(=O)c2ccc(S(=O)(=O)N3CCc4ccccc4C3)cc2)o1
    0, -6.9, -7, -31, -55, 9.8, -2, -0.5, -6, 50
- CCOC(=O)c1cc(-c2ccccc2)n(CC(=O)Nc2ccc(OC)c(OC)c2)c1C
    -4, -1.8, -22, 15, 4, 14, 11, 0.4, 9, -3
- CCCNS(=O)(=O)c1ccc(OCC(=O)Nc2ccccc2F)cc1
    -3, -0.5, ., ., ., ., -10, 1.7, -8, ?
- O=C(Nc1ccc(N2CCOCC2)cc1N1CCOCC1)c1ccc([N+](=O)[O-])cc1Cl
    -3, 0.3, ?, -9, -3, -6.0, -2, -0.3, 13, -2
- COc1ccc(Br)c(C(=O)N2CCN(S(=O)(=O)/C=C/c3ccccc3)CC2)c1
    -5, -0.6, -3, 1, -2, 4.1, -4, ., 7, -17
- COc1ccccc1/C=C/C=N/n1c(-c2cc(-c3ccccc3)n[nH]2)n[nH]c1=S
    2, -0.1, 6, -2, 9, 4.0, -2, -1.0, -12, -2
- O=S(=O)(Nc1ccc(Br)cc1)c1cccc(NC(=S)NCCN2CCOCC2)c1
    1, 0.2, 7, 7, -25, 2.3, -7, -1.4, 3, 0
- Cc1ccccc1CN1CCN(C(=O)c2ccc(S(=O)(=O)NCc3ccco3)cc2)CC1
    1, -0.2, 4, -18, -11, 2.2, -2, -0.7, ., .
- Cc1ncsc1C(=O)N1N=C2/C(=C/c3ccc(N4CCOCC4)cc3)CCCC2C1c1ccc(N2CCOCC2)cc1 (stereo not drawn)
    8, -0.8, -7, ., ., ., -1, -0.1, 44, 9
- CCOc1ccccc1Oc1coc2cc(OC(=O)c3ccco3)ccc2c1=O
    9, -0.4, -1, ., ., ., -9, -4.1, 6, 6
- COc1ccc(OC)c(C(=O)c2coc3ccc(O)cc23)c1
    -3, -0.3, 5, ., ., ., ., 2.4, -2, 0
- NNC(=S)Nc1ccc(OC(F)(F)F)cc1
    16, -0.4, ., -10, -4, 1.8, 4, 9.5, -4, 3
- Cc1cccc(NNC(=S)Nc2c(C)cccc2C)c1
    0, 0.3, 72, -2, 1, -0.6, -9, -2.3, -5, -13
- CN1CCN(CCOC2Cc3ccccc3Sc3ccc(Cl)cc32)CC1 (stereo not drawn)
    9, 0.6, 0, ., ., ., -2, -3.1, 39, -2
- CN(C)S(=O)(=O)c1ccc(NC(=O)COc2ncnc3sccc23)cc1
    1, 0.2, 1, -15, -9, -2.8, -6, 1.8, 4, -12
- COc1ccccc1NCC(=O)n1nc(C)cc1C
    -4, -1.8, ., 4, 1, 2.0, -2, ., -4, 4
- COc1ccc(OCc2cc(C(=O)NC3CCc4ccccc43)no2)c(Cl)c1 (stereo not drawn)
    1, 0.1, -4, 1, 5, -2.1, 4, 1.3, 15, 1
- O=C(c1cccc(N2CCCC2=O)c1)N1CCN(c2ccc(F)cc2)CC1
    -2, -0.9, 15, -1, 5, -1.0, -8, 2.9, -2, -1
- CC1CC(CCC(=O)NC(=S)Nc2ccc(S(N)(=O)=O)cc2)C(=O)O1 (stereo not drawn)
    -2, 0.1, 10, 15, 19, -1.9, -4, -1.0, -4, -2
- CC(C)C[C@H](NC(=O)c1nc[nH]c1C(=O)N(C)Cc1ccccc1)C(=O)OC(C)(C)C
    -1, -0.1, 0, 2, 11, 10, ., -1.2, -9, 9
- Clc1ccc(N2CCN(Cc3c[nH]c4ncccc34)CC2)cc1
    4, -0.1, 10, ., ., ., 50, -0.4, ., .
- Cc1ccc2c(c1)N(CC(=O)N1CCC(O)CC1)C(=O)CO2
    6, ., ., -23, -34, -8.6, ., ., -7, -6
- O=C1CCCC2=C1C(c1cccc(Br)c1)n1nc(-c3ccco3)nc1N2 (stereo not drawn)
    -22, ., ., 7, 10, 2.0, ., ., -6, 2
- COCCN1CCN(c2c3c(nc4cc(-c5cccc(F)c5)nn24)CCC3)CC1
    -7, 1.1, 1, ., ., ., 0, 0.2, 29, 22
- O=C(NCc1cccnc1)c1cc(Cl)ccc1[N+](=O)[O-]
    3, 0.4, -3, ., ., ., 3, -1.4, -11, -23
- COc1ccc(N(C(=O)Cn2cnc3ccccc32)C(C(=O)NC2CCCCC2)c2ccccc2)cc1 (stereo not drawn)
    5, 0.1, -5, ., ., ., 5, -1.5, -1, 28
- COc1ccc(-c2nn(-c3ccccc3)cc2/C=N/N2C(=O)CSC2=S)cc1
    11, -1.1, 2, ., ., ., 106*, -2.7, -19, 36
- COC(=O)c1[nH]c(C)c(/C(O)=C2\C(=O)C(=O)N(CCN3CCOCC3)C2c2cccnc2)c1C (stereo not drawn)
    5, -0.4, 15, ., ., ., -4, 1.1, 4, -5
- Cc1nc(CSc2ccc(Cl)cc2)cc(N2CCOCC2)n1
    -4, 0.9, 3, ., ., ., -8, 4.9, 12, 1
- CC1CCCCN1S(=O)(=O)c1cccc(S(=O)(=O)N2CCOCC2)c1 (stereo not drawn)
    1, 0.0, -4, -3, -4, -6.2, -3, -0.9, -2, 1
- CC1=CC(C)(C)NC(=S)N1c1cccc2ccccc12
    -2, 0.6, -31, ., ., ., -4, -1.4, -8, -10
- Cc1cccc(N2C(=O)C(Cl)=C(N3CCOCC3)C2=O)c1
    0, 1.3, -1, 0, 5, 2.6, -2, 0.9, -3, -1
- OCC[C@H]1C[C@@H](O)[C@H](O)[C@@]2(CCCCO2)O1
    -4, -0.1, ., 14, 11, 4.0, -4, 2.0, -18, -7
- CC(=O)c1c(C)nc(-c2ccc3c(c2)OCO3)n1O
    6, -0.2, 17, ., ., ., 3, -0.4, -1, -4
- CCN(CC)c1ccc(/C=N/N2CC(=O)NC2=S)cc1
    5, -1.0, -1, -4, 3, 1.5, -2, 1.9, ., .
- COCC(=O)Nc1ccc(C(N)=O)cc1
    33, 0.5, -1, ., ., ., -4, 0.1, -23, -4
- NNC(=O)c1nc(-c2cccc(-n3cccc3)c2)no1
    -1, -1.1, -4, -4, 0, -3.4, 5, 0.5, 16, -18
- CC1CN(c2nc3ccccc3nc2C(C#N)C(=O)OC2CCCCC2)CC(C)O1 (stereo not drawn)
    -12, -0.6, -1, ., ., ., 33, -34, 63*, -4
- O=C(COc1ccc2c(c1)oc(=O)c1ccccc12)N[C@@H](Cc1c[nH]c2ccccc12)C(=O)O
    -6, 1.3, ., ., ., ., -3, 1.4, -3, -2
- CC1=C(C)CC(C(=O)Nc2cccc(Cl)c2)C(C(=O)O)C1 (stereo not drawn)
    -7, 1.1, 2, ., ., ., -3, 1.3, -14, 6

Source: PubChem BioAssay (several laboratories)
